Source: PubChem BioAssay
Ba CapD inh – blocks the Bacillus anthracis CapD enzyme | purified CapD enzyme, fluorescence intensity read-out; hits give low values; some hits fall short of the stated cut | z-score (test concentration not listed) | hit rate 0.23% among 140,000;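 active means z-score under -4 in either of two replicates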;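 further: stock transfer was 100 nL into about 40 µL; score is relative to mean and spread of the plate; one replicate is shown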
AID504770 – E. coli YBA685 growth inhibition, screen for V. cholerae RctB inhibitors; E. coli YBA685 rctB-dependent plasmid, OD600 growth, 3 h; hits give low values; z-score (concentration not given with the values); hit rate 0.27% among 130,000;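 active means z-score under -2 on both plates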;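 further: wells of about 30 µL received 100 nL stock; score is relative to mean and SD of the test wells; the first replicate is given; strong numbers were not always called active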
* = called active by the depositor; & = joins results of further samples.

For Cc1ccc(N2C(=O)/C(=C/c3ccc(-c4ccc([N+](=O)[O-])cc4)o3)C=C2c2ccccc2)cc1 the results were Ba CapD inh -0.41.
`COc1ccc(CSc2nnc(SC(C)C(N)=O)s2)cc1` (centres undefined) gave AID504770 0.1.
Screening Cc1ccc(C)c(OCC(=O)Nc2ccccc2C#N)c1 returned Ba CapD inh 0.35 and AID504770 -0.1.
COc1ccc2c(COC(=O)CNS(=O)(=O)c3ccccc3)cc(=O)oc2c1 was read as AID504770 -2.4.
Nc1cc(=O)[nH]c(SCCC(=O)O)n1 was read as Ba CapD inh 1.2 and AID504770 -0.6.
Screening Clc1cccc(-c2nnc(-c3ccccc3)o2)c1 returned Ba CapD inh -0.17 and AID504770 0.7.
Screening CCOC(=O)C(C)NC(=O)c1cc(OC)nc(OC)n1 (centres undefined) returned Ba CapD inh -0.12.
`O=C(O)CC(Nc1ncnc2ccccc12)C(=O)O` (centres undefined) gave Ba CapD inh 0.73 and AID504770 0.95.
CCOc1ccc(Nc2c(S(=O)(=O)c3ccccc3)cnc3ccc(OCC)cc23)cc1 was read as Ba CapD inh -0.81 and AID504770 -0.55.
`CCOC(=O)c1c(CN2CCOCC2)n(-c2ccccc2)c2cc(Br)c(OC)cc12` gave Ba CapD inh 0.14.
Cc1ccc2oc(=O)c3cnn(CC(=O)Nc4cccnc4)c3c2c1 was read as Ba CapD inh 0.23 and AID504770 0.4.
Screening CC(C)NC(=O)COc1ccc(-c2nn(C)c(=O)c3ccccc23)cc1 returned Ba CapD inh 0.69 and AID504770 -0.2.
CCOC(=O)c1c(C)c(C#N)c(NC(=O)c2ccc(Cl)cc2Cl)n1-c1ccc(C)cc1 was read as Ba CapD inh -0.19 and AID504770 0.4.
For CC(C)(CC(=O)O)CC(=O)NC1Cc2ccccc2C1 the results were Ba CapD inh 0.57 and AID504770 2.9.
Nc1cc(-c2ccccc2)[nH]n1 was read as Ba CapD inh 0.52&0.83 and AID504770 -0.9.
For COc1ccc(C2CC(=O)n3nc(-c4ccccc4)nc3S2)cc1OC (centres undefined) the results were Ba CapD inh -0.065 and AID504770 0.2.
`O=C(Nc1ccc2ncsc2c1)c1ccc(S(=O)(=O)N2CCCC2)cc1` gave Ba CapD inh -0.23.
CCOC(=O)c1c(C)c(C(=O)NCc2ccccc2)c(C)n1C was read as Ba CapD inh -0.3 and AID504770 0.45.
`COc1cccc(C2C(C#N)=C(N)OC3=C2C(=O)CCC3)c1OC(=O)N1CCOCC1` (centres undefined) gave Ba CapD inh -0.3.
`O=C(Nc1ccc(Br)cc1)/C(=C/c1ccc2c(c1)OCO2)NC(=O)c1ccc(Br)cc1` gave Ba CapD inh 5.5.
`C=CCNC(=O)C(C)(C)Oc1ccc(Cl)cc1` gave Ba CapD inh 0.11 and AID504770 -0.6.
`O=C(COC(=O)c1ccc(Cl)cc1)NC1CC1` gave AID504770 0.05.
`CCOC(=O)N1CCC(NC(=O)c2cc3cc4ccc(OC)cc4nc3o2)CC1` gave Ba CapD inh 75 and AID504770 -0.95.
Screening COc1ccc(OC)c2[nH]c(=O)c(CCNC(=O)c3ccc(F)c(F)c3)cc12 returned Ba CapD inh 0 and AID504770 -0.6.

Sorted by length of the SMILES (rising): part of the list above
Nc1cc(-c2ccccc2)[nH]n1 was read as Ba CapD inh 0.52&0.83 and AID504770 -0.9.
`O=C(COC(=O)c1ccc(Cl)cc1)NC1CC1` gave AID504770 0.05.
Screening Clc1cccc(-c2nnc(-c3ccccc3)o2)c1 returned Ba CapD inh -0.17 and AID504770 0.7.
Screening CCOC(=O)C(C)NC(=O)c1cc(OC)nc(OC)n1 (centres undefined) returned Ba CapD inh -0.12.
CCOC(=O)c1c(C)c(C(=O)NCc2ccccc2)c(C)n1C was read as Ba CapD inh -0.3 and AID504770 0.45.
Cc1ccc2oc(=O)c3cnn(CC(=O)Nc4cccnc4)c3c2c1 was read as Ba CapD inh 0.23 and AID504770 0.4.
For COc1ccc(C2CC(=O)n3nc(-c4ccccc4)nc3S2)cc1OC (centres undefined) the results were Ba CapD inh -0.065 and AID504770 0.2.
`O=C(Nc1ccc2ncsc2c1)c1ccc(S(=O)(=O)N2CCCC2)cc1` gave Ba CapD inh -0.23.
`CCOC(=O)N1CCC(NC(=O)c2cc3cc4ccc(OC)cc4nc3o2)CC1` gave Ba CapD inh 75 and AID504770 -0.95.
Screening COc1ccc(OC)c2[nH]c(=O)c(CCNC(=O)c3ccc(F)c(F)c3)cc12 returned Ba CapD inh 0 and AID504770 -0.6.
CCOc1ccc(Nc2c(S(=O)(=O)c3ccccc3)cnc3ccc(OCC)cc23)cc1 was read as Ba CapD inh -0.81 and AID504770 -0.55.
`COc1cccc(C2C(C#N)=C(N)OC3=C2C(=O)CCC3)c1OC(=O)N1CCOCC1` (centres undefined) gave Ba CapD inh -0.3.
CCOC(=O)c1c(C)c(C#N)c(NC(=O)c2ccc(Cl)cc2Cl)n1-c1ccc(C)cc1 was read as Ba CapD inh -0.19 and AID504770 0.4.
`O=C(Nc1ccc(Br)cc1)/C(=C/c1ccc2c(c1)OCO2)NC(=O)c1ccc(Br)cc1` gave Ba CapD inh 5.5.

Continued.
CCCCOc1ccc(C2C=C(Nc3ccccc3)C(=O)N2c2ccccc2)cc1 (centres undefined) was read as Ba CapD inh -0.28.
O=C(O)C1CC=CCC1C(=O)N(Cc1ccccc1)c1ccccc1 (centres undefined) was read as AID504770 -0.1.
`CCOC(=O)Nc1ccc2c(CN(C)CC(=O)Nc3cccc(C)c3C)cc(=O)oc2c1` gave AID504770 1.9.
CCn1c(-c2cccs2)c(CN(CCOC)C(=O)Nc2ccccc2)c2ccccc21 was read as Ba CapD inh 2.1 and AID504770 1.2.
Screening O=C(Cn1nc(-c2ccccc2)c2cc(Cl)ccc21)NC1CC1 returned Ba CapD inh 6.1 and AID504770 -0.3.
Screening CCOC(=O)c1ccc(N2C(=N)S/C(=C\c3ccc(OC)c(OC)c3OC)C2=O)cc1 returned Ba CapD inh -0.035.
`CCC(C)(C)c1ccc(S(=O)(=O)NCCc2cc(OC)cc(OC)c2)cc1` gave Ba CapD inh -0.39.
`C=CCNC(=O)c1cc(Cl)c(=O)n(Cc2ccc(Cl)c(Cl)c2)c1` gave Ba CapD inh 0.26.
O=C1CCC(=O)N1CCn1c2ccccc2c2nc3ccccc3nc21 was read as Ba CapD inh -1.2 and AID504770 -1.
Cn1ncc(Br)c1NC(=O)c1ccco1 was read as Ba CapD inh 0.52 and AID504770 -0.45.
For COc1ccc(CCC(=O)Nc2n[nH]c3nc4cc(OC)ccc4cc23)cc1 the results were Ba CapD inh 0.28 and AID504770 -0.15.
For CC(=O)OCC1OC(n2ccc3ccccc32)C(OC(C)=O)C(OC(C)=O)C1OC(C)=O (centres undefined) the results were AID504770 -0.55.
For CSc1nc2c(sc3ccccc32)c(=O)n1CC1CCCO1 (centres undefined) the results were Ba CapD inh 0.55 and AID504770 0.1.
CC1(C)CC(=O)c2c(NCc3ccco3)sc(C#N)c2C1 was read as Ba CapD inh -0.27 and AID504770 -0.55.
For N#Cc1c(SCC(=O)c2ccc(F)cc2)nsc1SCC(=O)c1ccc(F)cc1 the results were Ba CapD inh 1 and AID504770 0.6.
Screening CC(C)(C)C(=O)CSc1n[nH]c(=O)n1-c1ccccc1C(F)(F)F returned Ba CapD inh 0.79 and AID504770 -0.65.
`NNC(=S)Nc1ccc(C(F)(F)F)cc1Cl` gave Ba CapD inh -0.18 and AID504770 2.1.
Screening Cc1ccc(S(=O)(=O)N2CCCC2C(=O)Nc2nc3ccccc3s2)cc1 (centres undefined) returned Ba CapD inh -0.86 and AID504770 -0.75.
`Cc1cc(C(=O)NCc2ccc(N3CCN(C)CC3)cc2)nn1C` gave Ba CapD inh 0.23 and AID504770 -0.1.
For O=C(N1CCOCC1)N1c2ccccc2C=Cc2ccccc21 the results were Ba CapD inh -0.33.
Screening Cc1ccc(C)c(NC2=NCCCS2)c1 returned AID504770 -0.15.
`CCC(C)NS(=O)(=O)c1ccc(-n2cnnn2)cc1` (centres undefined) gave AID504770 1.2.
For Cc1ccccc1-c1noc(CSc2ncccn2)n1 the results were AID504770 -0.1.
For O=C(CSC(=O)c1ccccc1)Nc1ccc2ccccc2c1 the results were Ba CapD inh 0.03 and AID504770 -0.1.
O=S(=O)(c1ccccc1)n1ccc(-c2cnc(-c3ccccc3)s2)n1 was read as Ba CapD inh 3.4.
`CCOC(=O)C1=C(C)N=c2s/c(=C/c3cccc([N+](=O)[O-])c3O)c(=O)n2C1c1cc(OC)ccc1OC` (centres undefined) gave Ba CapD inh -0.18.
Screening O=C(/C=C/c1ccco1)Nc1cccc(C(F)(F)F)c1 returned AID504770 0.55.
`c1ccc(-c2nnc(-c3ccccn3)nc2-c2ccccc2)cc1` gave Ba CapD inh -0.38&-1.1.
For CCn1c(SCC(=O)N(C)CC(=O)Nc2ccccc2Cl)nnc1-c1ccco1 the results were AID504770 0.4.
Cn1c(-c2cccs2)c(CNC(=O)NCc2ccccc2)c2ccccc21 was read as Ba CapD inh 12 and AID504770 -0.4.
N#CCc1ncc(CSc2nc3ccccc3[nH]2)s1 was read as Ba CapD inh -0.79 and AID504770 -0.7.
For COc1ccc(C2C=C(Nc3ccccc3)C(=O)N2c2ccccc2)c(OC)c1 (centres undefined) the results were Ba CapD inh -0.56.
O=C(C(Sc1nnc(C2CC2)n1C1CC1)c1ccccc1)N1CCOCC1 (centres undefined) was read as AID504770 -0.8.
Cc1ccc(CNC(=O)c2ccc(Cl)c(S(N)(=O)=O)c2)n1C was read as AID504770 0.05.
Screening O=C(COC(=O)c1cc(Cl)ccc1O)c1ccc(S(=O)(=O)N2CCCCC2)cc1 returned AID504770 -0.6.
O=S(=O)(NNc1ccccc1)c1cccs1 was read as AID504770 -1.6.
For CC1(C)Cc2cccc(OCc3nc4ccccc4[nH]3)c2O1 the results were Ba CapD inh -1.2 and AID504770 -0.5.
For CC1CCN(c2ccc(N3CCN(S(C)(=O)=O)CC3)nn2)CC1 the results were AID504770 -1.2.
`Cc1sc2nc(SCC(=O)c3ccc(O)c(O)c3)[nH]c(=O)c2c1C` gave Ba CapD inh 2.4 and AID504770 0.7.
FC(F)(F)c1cc(-c2ccco2)nc2c(-c3ccccc3)cnn12 was read as Ba CapD inh -0.35 and AID504770 1.
NC(=O)c1nnc(C(Nc2ccc(F)cc2)c2cccc(Cl)c2)o1 (centres undefined) was read as Ba CapD inh -0.39 and AID504770 1.1.
N#CCc1ccc(NC(N)=O)cc1 was read as Ba CapD inh 0.18.
For COc1ccc(Oc2ccc(-c3nc(N)c(C#N)c(C#N)c3C#N)cc2)cc1 the results were Ba CapD inh 2.6.
Screening Cc1ccc2cc3cc(C(=O)N4CCCC4)oc3nc2c1 returned Ba CapD inh -0.1 and AID504770 0.4.
Screening Cc1ccc2nsnc2c1S(=O)(=O)N1CCN(C(=O)C2CCCO2)CC1 (centres undefined) returned Ba CapD inh -0.73.
Screening COc1ccc(OC)c2[nH]c(=O)c(CCNC(=O)C(C)C)cc12 returned AID504770 0.5.
Screening Cc1ccc(NC(=O)c2c3c(nc4ccccc24)CCCC3)cc1 returned Ba CapD inh 0.2 and AID504770 2.
CC(C)(C)C1(C)OC(C(N)=O)C(C(N)=O)O1 (centres undefined) was read as Ba CapD inh -0.16 and AID504770 1.5.
`CCn1c(=O)c(=O)[nH]c2cc(C(=O)Nc3cc(Cl)c(N)c(Cl)c3)ccc21` gave AID504770 0.1.
Screening CN1C(=O)/C(=N\N=C\c2c(O)[nH]c(=O)[nH]c2=O)c2ccccc21 returned AID504770 0.7.
`CCN(CC)C(=O)C[n+]1cccc(C(N)=O)c1` gave Ba CapD inh 0.12 and AID504770 0.85.
Screening Cn1c(COc2ccc(Cl)cc2)nnc1SCCN1C(=O)c2ccccc2S1(=O)=O returned AID504770 0.05.
`CC1CN=C(NCc2cccnc2)S1` (centres undefined) gave Ba CapD inh 0.38 and AID504770 0.1.
Cc1c(Br)sc2ccc(Cl)cc12 was read as Ba CapD inh -0.4.
Screening CCOC(=O)c1c(NC(NC(=O)C(C)C)C(Cl)(Cl)Cl)sc(C(=O)Nc2ccccc2)c1C (centres undefined) returned Ba CapD inh -0.085.
For Cc1nc(C)c(-c2ccn[nH]2)s1 the results were Ba CapD inh 1.3 and AID504770 -0.15.
`CCc1ccc(C2=NN(c3ccccc3)C3(SC(C(C)=O)=NN3c3ccccc3[N+](=O)[O-])c3ccccc32)cc1` (centres undefined) gave Ba CapD inh -0.34.
`C=CCSc1nc2cc(S(C)(=O)=O)ccc2n1C(C)C` gave Ba CapD inh 0.085.
For CC(=O)c1cc2c(cc1NC(=O)c1cc3nc(-c4cccs4)cc(C(F)(F)F)n3n1)OCO2 the results were Ba CapD inh -0.13.
`Cn1nc(C(F)(F)F)c(C(=O)Nc2cccc(C(F)(F)F)c2)c1Cl` gave Ba CapD inh -0.52.
For CC(=O)c1cccc(Nc2ncnc3ccc(Br)cc23)c1 the results were Ba CapD inh 0.29.
`CN1CCN(CCOCCOc2ccc(Cl)c(Cl)c2)CC1` gave Ba CapD inh -0.23 and AID504770 -0.6.
`c1ccc(-c2ccc(C(c3ccccc3)n3ccnc3)cc2)cc1` (centres undefined) gave AID504770 0.25.
`CC(=O)Nc1ccc(NC(=O)C2CC(C)=CCC2C(=O)O)cc1` (centres undefined) gave Ba CapD inh 0.16 and AID504770 0.2.
Cc1noc2ncn(CC(=O)NCc3ccco3)c(=O)c12 was read as Ba CapD inh -0.92 and AID504770 -1.2.
O=C1CCCC(O)=C1N=Nc1cc(C(F)(F)F)ccc1OCC(F)(F)F was read as Ba CapD inh -1.4 and AID504770 1.6.
`O=C(c1ccc(Cn2c(=S)[nH]c3ccc(Br)cc3c2=O)cc1)N1CCN(c2ncccn2)CC1` gave Ba CapD inh 0.52.
`C#C/C=C/COC(=O)N1CCN(c2ccc(C(F)(F)F)cn2)CC1` gave Ba CapD inh 6.3.
`COc1ccc(CCNC(=O)CCn2c(SCC(=O)NCCC(C)C)nc3ccccc3c2=O)cc1OC` gave Ba CapD inh -1.
